T cruzi repl = blocks replication of Trypanosoma cruzi. 1.4% of 300,000 active. T. cruzi beta-gal in NIH3T3, luminescence, 90 h. inhibition, % (concentration not given with the values);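 active = mean inhibition across valid replicates above about 55%, limit read from the data; inconclusive = mean below that limit but half or more replicates reach it; inactive = mean below it, under half of replicates reach it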;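 note: signal also drops with host cell toxicity which is not excluded here; 0% = plate median of DMSO wells and 100% = zero luminescence signal; higher percent means less beta-gal luminescence so fewer parasites; stock transfer was 50 nL into about 50 µL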
Beta apoptosis = beta cell apoptosis inhibition | INS-1E cytokine-induced death, ATP luminescence, 48 h; percent of positive-control rescue, neutral wells zero | protection from apoptosis, % (concentration not given with the values) | 0.8% of 300,000 active;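 active = all replicates at 75% or more, or half of them and the mean; inconclusive = half reach 75% but not the mean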;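 note: 0% = cytokine-treated negative control wells and 100% = positive control rescue; higher means more ATP so stronger rescue from cytokine killing; wells of about 40 µL received 100 nL stock; the first replicate is given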
Calb FLC = affects C. albicans growth with fluconazole; growth inhibition, % (test concentration not listed); C. albicans CaCi-2 (fluconazole-resistant clinical isolate) + fluconazole, Alamar Blue growth, 48 h; AID 1979; 0.57% of 300,000 active;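 active = most replicates above 75%; inconclusive = exactly half above 75%; inactive = most below 75%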;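 note: all wells also contain fluconazole at 8 µg/ml as a sub-toxic cotreatment; 0% = median of DMSO wells and 100% = median of geldanamycin control wells; wells of about 8 µL received 7.5 nL stock; the first replicate is given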
Vif A3G = inhibitors of Vif binding to APOBEC3G peptide, primary screen, biochemical, TR-FRET, GST-Vif 1-94, biotin-A3G peptide, dose response retest (AID 1117319) | 0.57% of 260,000 active | inhibition, %; hits with a dose series show IC50 in µM | TR-FRET GST-Vif / biotin-A3G peptide binding; higher % means a stronger effect; test concentration not given here; strong numbers were not always called active;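 active = above the screen mean plus three standard deviations and confirmed in dose response; inconclusive = results disagree or hit not tested in dose response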;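 note: Vif residues 1-94 fused to GST binding biotinylated APOBEC3G peptide 110-148; 0% = full assay without inhibitor and 100% = GST in place of GST-Vif; retest series ran down from 100 µM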
MLL AF4-AF9 inh = blocks AF4 peptide binding to human AF9; P42568; AlphaScreen, biotin-AF4 peptide binding to FLAG-AF9; inhibition, % at 10 µM; 0.47% of 350,000 active; AID 651704;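 active = every replicate reaching a set inhibition limit, whatever the replicate mean, cut at about 25% in these data; inconclusive = mean inhibition reaches that limit but some replicates miss it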;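 note: 0% = plate neutral control median and 100% = total signal loss; the record names both 10 and 1 µM as test concentration; the first replicate is given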
Target sequence (P42568 whole entry, looked up): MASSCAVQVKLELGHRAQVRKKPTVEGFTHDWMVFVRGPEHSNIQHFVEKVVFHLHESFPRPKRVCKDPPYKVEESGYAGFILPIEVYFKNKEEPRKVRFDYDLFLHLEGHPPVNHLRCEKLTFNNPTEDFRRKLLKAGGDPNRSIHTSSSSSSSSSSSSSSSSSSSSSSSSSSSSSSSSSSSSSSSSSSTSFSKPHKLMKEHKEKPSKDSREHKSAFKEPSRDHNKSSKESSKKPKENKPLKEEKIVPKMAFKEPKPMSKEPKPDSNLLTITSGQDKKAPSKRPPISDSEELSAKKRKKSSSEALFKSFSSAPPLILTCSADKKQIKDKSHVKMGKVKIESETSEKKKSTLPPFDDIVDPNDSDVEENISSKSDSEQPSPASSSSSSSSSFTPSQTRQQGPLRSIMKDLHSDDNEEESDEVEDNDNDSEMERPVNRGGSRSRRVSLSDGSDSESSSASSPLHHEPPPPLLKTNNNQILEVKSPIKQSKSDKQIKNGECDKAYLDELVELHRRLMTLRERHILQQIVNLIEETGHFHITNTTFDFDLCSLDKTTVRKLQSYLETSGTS
rRNA inh HTS = inhibitors of bacterial rRNA selective over humanized ribosomes | E. coli WT GFP vs humanized-ribosome RFP mutants, fluorescence, 24 h; stronger effect = lower value; DMSO median 0, no signal -100 | GFP signal change (wild-type ribosome), % (no concentration beside the values) | 1.6% of 350,000 active;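 active = significant combined selectivity score with lowered wild-type GFP, culture density cut under 30%, mutant RFP and density less affected; inactive = any of these conditions unmet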; note: one replicate is shown; some compounds called inactive have numbers as strong as hits
A1 inh = inhibitors of the anti-apoptotic protein A1, read as caspase activation; MEF A1-2A-BIM cells, Caspase-Glo 3/7 luminescence, 3 h; percent of clofoctol response, vehicle zero; caspase activation, % (no concentration beside the values); 0.066% of 330,000 active;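 active = over half of replicate activation scores above 10%, or exactly half above 10 with the replicate mean above 10; inconclusive = replicate mean below 10 yet half the replicates above 10; inactive = over half of replicates below 10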;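 note: wells of about 30 µL received 50 nL stock; many hits fall short of the cut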
RanGTP-Impb inh = disruptors of Ran-importin-beta complex formation – biochemical, FRET, CFP-Ran, YFP-importin-beta, homogeneous, primary screen; cell-free CFP-Ran/YFP-importin-beta FRET ratio; inhibition, % (no concentration beside the values); 1.1% of 300,000 active;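 active = most replicates above 15%; inconclusive = exactly half above 15%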;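 note: 0% = DMSO wells and 100% = Ran loaded with GDP instead of GTP; wells of about 40 µL received 100 nL stock; the first replicate is given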
rRNA inh HTS OD600 = second read-out of rRNA inh HTS, no call of its own (marks repeat the call); OD600 change, %; measured here: OD600 growth;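 optical density of the mix in the first replicate; 0 = DMSO median and -100 = no signal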
rRNA inh HTS RFP = further read-out of rRNA inh HTS, marked with its call; RFP signal change, %; measured here: RFP humanized mutant strains;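 first replicate; 0 = DMSO median and -100 = no signal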
An asterisk follows results filed as active; ? = inconclusive; / = not tested or not shown; & = joins results of further samples.

molecule	T cruzi repl	Beta apoptosis	Calb FLC	Vif A3G	MLL AF4-AF9 inh	rRNA inh HTS	rRNA inh HTS OD600	rRNA inh HTS RFP	A1 inh	RanGTP-Impb inh
CCC(C(=O)O)n1nc(-c2ccccc2)c2cc(Cl)ccc21 (centres undefined)	7	2	-61	0%	-3.5	-22	-27	-7.2	0.5	-5.3
CCN(Cc1ccncc1)C(=O)CCc1nnc(CCc2ccc(OC)cc2)o1	-8	-3	-6	15%	-0.6	10	14	0.3	-0.2	-7.7
COc1ccc(CC(=O)N2CCCC(CNC(=O)c3ccccc3Cl)C2)cc1 (centres undefined)	-5	-2	12	/	-0.9	3	1	0.3	0.0	0.7
COc1cc(/C=N/n2c(C)nc3ccccc3c2=O)ccc1O	-5	3	2	-9%	-4.1	12	7	-1.0	-0.5	2.7
CCCC(c1nnnn1Cc1ccc(OC)cc1)N1CCN(c2ccccc2OC)CC1 (centres undefined)	24	-1	-6	1%&-1%	/	/	/	/	-0.2	3.3
CCN(CC)c1ccc(NC(=O)CN2CCN(c3ccccn3)CC2)cc1	-11	-4	2	4%	10	5	3	-0.2	1.3	2.9
O=C(O)CCNC(=O)c1ccc(Br)o1	-10	-4	-8	-4%	/	/	/	/	-0.4	2.3
COc1ccc2[nH]c(=O)c(CN(C)C(=O)c3ccncc3)cc2c1	-21	-4	1	-4%	/	/	/	/	0.6	1.6
O=C(CNC(=O)c1ccco1)NCC(=O)OCc1ccc(F)cc1	-6	-5	-1	-4%	-10	7	3	-2.8	0.1	8.1
CCN(CC(=O)NCc1ccccn1)S(=O)(=O)c1cc(Cl)ccc1Cl	2	/	4	-3%	-1.2	-3	-2	-6.9	-0.4	0.9
Cc1nn(C)c(Cl)c1C(N)=O	-10	-2	-6	-4%	0.0	12	17	4.5	-0.1	-3.4
O=C(CCN1CCN(C(c2ccccc2)c2ccccc2)CC1)N/N=C/c1ccc(O)cc1O	1	-9	-3	24%	/	/	/	/	0.4	-14
CCCn1c(SCC(=O)N2CCN(c3ccc(OC)cc3)CC2)nc2c1c(=O)n(C)c(=O)n2C	11	-3	-24	31%&4%	/	/	/	/	0.0	-3.5
Cc1ccccc1N(CC(=O)NC1CCCC1)C(=O)CS(=O)CC(=O)Nc1ccc2c(c1)OCO2 (centres undefined)	-6	/	0	-3%	/	/	/	/	-0.5	1.1
CC(=O)c1ccc(OC(=O)C2c3ccccc3Oc3ccccc32)cc1	-12	-4	-4	-4%	/	/	/	/	0.2	6.9
COc1ccc(/C(N)=N/OC(=O)N2CCOCC2)cc1	51	6	-8	18%	-1.3	3	0	-1.5	0.3	-6.0
COc1ccc(C2CC(c3cccs3)=NN2C(=O)CN2CCCCC2)cc1 (centres undefined)	12	-2	-17	-1%	4.5	12	-1	2.5	-1.1	-1.2
O=C(O)c1ccccc1-c1ccc(/C=C2\SC(=O)N(c3ccccc3)C2=O)o1	-6	0	-2	4%	-0.6	3	5	1.1	-1.7	?
C[C@H](NC(=O)c1ccccc1Cl)C(=O)OCC(=O)N1CCN(c2ccccc2)CC1	/	-4	/	-4%	-0.1	1	4	0.1	0.1	/
COc1ccc(-n2c(=O)[nH]cc(C(=O)Nc3ccc(NC(C)=O)cc3)c2=O)cc1	-7	3	19	/	/	/	/	/	1.5	-0.6
Cc1ccc(Cn2cccc(NS(C)(=O)=O)c2=O)cc1	0	/	9	/	3.1	10	6	3.2	/	0.3
CN(C)/C=N/c1c(C#N)nnn1Cc1ccccc1	-9	2	2	-5%	/	/	/	/	-0.4	0.5
CC(=O)Cc1nsc(NC(=O)c2cc(-c3ccc(Cl)c(Cl)c3)oc2C)n1	-16	8	-36	8%	/	/	/	/	-1.6	3.1
Cc1ccc(S(=O)(=O)N2CCOCC2)cc1NC(=O)CSc1nnc2cc(C)c3ccccc3n12	-4	11	2	-4%	/	/	/	/	-0.5	-1.0
Cc1ccc(-n2c(-c3ccccc3)cc(=O)nc2C)cc1	-10	-4	-2	-3%	/	/	/	/	0.1	-4.9
CCOc1ccccc1/C=N/NC(=O)c1c(C)nc2ccc(Br)cn12	-10	-1	1	-4%	3.7	9	0	1.2	-1.9	0.4
CCn1cc([N+](=O)[O-])c(C(=O)N2CCCCCC2)n1	-18	1	4	/	-0.8	14	6	1.5	-0.6	5.0
COc1cccc(NC(=O)COC(=O)CCCC2=NS(=O)(=O)c3ccccc3N2)c1	-9	-1	9	/	-3.3	-5	-3	-1.6	0.1	-0.3
COc1ccc(NC(=O)COC(=O)CCSc2ccccc2)cc1	/	-4	/	-1%	-33	15	13	4.7	0.5	/
Cc1ccc2nc(SCC(=O)Nc3ccc(C)c(Cl)c3)nc(=O)n2c1	-12	-8	13	-51%	-0.7	3	7	-1.8	-1.0	0.2
Cc1ccccc1Nc1nnc(SCC(=O)NC(=O)Nc2ccc3c(c2)OCCO3)s1	7	-1	-8	28%	/	/	/	/	-0.5	5.8
CNC(=O)N/N=C(\N)c1ccccn1	/	0	-4	/	1.1	15	8	-0.6	0.1	1.3
Cc1cnc(C(=O)Nc2ccc(N3CCCCC3)cc2)cn1	-1	6	-18	1%	2.9	17	-1	54	0.2	-1.0
CC(C)C(=O)Nc1cccc(C(=O)NCCc2ccc(S(N)(=O)=O)cc2)c1	-1	-7	-13	0%	/	/	/	/	-0.3	?
Cc1nn(-c2ccccc2)c(C)c1[N+](=O)[O-]	-8	-2	-5	14%	0.3	8	2	4.3	0.3	-3.9
CC1(C)CC(=O)C(C=Nc2ccc3c(c2)OCO3)=C(O)C1	-6	-2	6	11%	/	/	/	/	-0.2	6.5
CC(C)CCNC(=O)C1CC(c2ccc(C(F)(F)F)cc2)=NO1 (centres undefined)	-4	-5	6	-1%	-7.1	2	2	-3.3	0.0	2.1
Cc1ccc(C)c(N2CCN(C(=O)CCCCCn3c(=S)[nH]c4ccc(N5CCOCC5)cc4c3=O)CC2)c1	57*	54	36	/	3.0	-7	-2	1.8	-0.2	?
Cc1csc(NC(=O)CN2CCCCCC2)n1	-11	-6	2	4%	-33	17	11	0.4	-0.6	-2.6
COc1ccc(NC(=O)CCNC(=O)c2ccco2)cc1S(=O)(=O)N(C)C	-4	-2	-14	7%	0.8	-1	5	3.5	0.8	-1.4

Some of these compounds in order of the Vif A3G value, descending.
| compound | Vif A3G |
| --- | --- |
| COc1ccc(NC(=O)CCNC(=O)c2ccco2)cc1S(=O)(=O)N(C)C | 7% |
| CC(C)C(=O)Nc1cccc(C(=O)NCCc2ccc(S(N)(=O)=O)cc2)c1 | 0% |
| Cc1ccc(S(=O)(=O)N2CCOCC2)cc1NC(=O)CSc1nnc2cc(C)c3ccccc3n12 | -4% |

Continuation:
molecule	T cruzi repl	Beta apoptosis	Calb FLC	Vif A3G	MLL AF4-AF9 inh	rRNA inh HTS	rRNA inh HTS OD600	rRNA inh HTS RFP	A1 inh	RanGTP-Impb inh
O=C1CC(C(=O)O)C2(CCCC2)O1 (centres undefined)	-14	-5	6	-9%	/	/	/	/	-0.7	8.2
COC(=O)c1ccccc1NC(=O)CCCCCn1nnc2ccccc2c1=O	0	-1	4	-4%	0.1	-23	-45	-18	2.0	2.5
O=C(Nc1ccc2c(c1)CCC2)Nc1ccccc1Cl	2	8	-3	/	0.0	4	4	-1.1	-6.7	5.4
CC(=O)c1ccc(NC(=O)C(C)OC(=O)CCN=C2NS(=O)(=O)c3ccccc32)cc1 (centres undefined)	-11	-1	1	-8%	-2.3	2	7	-1.4	0.2	?
CC(=O)c1c(C)[nH]c(C(=O)Nc2nccs2)c1C	-30	-2	?	/	-0.3	-12	8	0.3	0.0	1.4
CN(CC(=O)NC1CCCCC1)S(=O)(=O)c1ccc2c(c1)c(=O)n(C)c(=O)n2C	-11	7	-3	/	-4.5	2	12	-5.2	-0.1	8.7
CCOC(=O)c1ccc(NC(=O)CN(C)S(=O)(=O)c2ccc(OC)cc2)cc1	0	4	-1	23%	/	19	18	3.6	0.3	5.9
CCCS(=O)(=O)n1nc(-c2ccccc2)cc1N	-2	1	4	5%	-15	5	8	-0.6	-0.1	2.1
CCCNc1nc(OCC(F)(F)F)nc(OCC(F)(F)F)n1	-6	-2	-2	0%	3.2	-5	-2	-0.2	-0.9	?
COc1cc(CCCN2C(=O)C(=O)NC[C@@H]2C(C)O)cc(OC)c1OC (some centres undefined)	4	6	-1	/	-2.4	-6	6	1.4	0.6	5.0
CC1=CCC2([N+](=O)[O-])CN(CC(=O)O)CC1([N+](=O)[O-])C2 (centres undefined)	-9	-4	-6	-4%	-9.4	13	11	2.1	-0.8	?
COc1ccc(CN(C(=O)c2ccc3c(c2)OCCO3)C(C(=O)NC2CCCCC2)c2ccc3ncccc3c2)cc1 (centres undefined)	23	-7	36	-5%	/	/	/	/	-0.1	1.0

Some entries already given with just A1 inh and Beta apoptosis.
Molecule	A1 inh	Beta apoptosis
Cc1ccc(S(=O)(=O)N2CCOCC2)cc1NC(=O)CSc1nnc2cc(C)c3ccccc3n12	-0.5	11
Cc1ccc(-n2c(-c3ccccc3)cc(=O)nc2C)cc1	0.1	-4

Source: PubChem

Only part of the results is shown; count on the stated rates, not on these rows.
